LANA-H2B inh = blocks KSHV LANA binding to histone H2A/H2B; Q9QR71; cell-free LANA-H2A/H2B peptide, fluorescence polarization; inhibition, % (concentration not given with the values); 0.6% of 320,000 active; AID 2629; in the data active means inhibition mostly above about 10%, no sharp cut-off; inactive means mostly below about 6.7%;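 further: stock transfer was 7.5 nL into about 10 µL; 0% = median of vehicle wells and 100% = median of positive control wells; one replicate is shown; the record names a cut of 25% in any replicate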
ALR H2O2 inh = inhibitors of human sulfhydryl oxidase ALR. P55789. purified ALR, DTT oxidation, H2O2 HRP-luminol luminescence. inhibition, % (test concentration not listed). 3.8% of 290,000 active. AID 485317;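 active means mean and each replicate at 75% or more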;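 further: stock transfer was 7.5 nL into about 7.5 µL; 0% = neutral wells and 100% = wells with inactivated enzyme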
Target sequence (P55789 whole entry, looked up): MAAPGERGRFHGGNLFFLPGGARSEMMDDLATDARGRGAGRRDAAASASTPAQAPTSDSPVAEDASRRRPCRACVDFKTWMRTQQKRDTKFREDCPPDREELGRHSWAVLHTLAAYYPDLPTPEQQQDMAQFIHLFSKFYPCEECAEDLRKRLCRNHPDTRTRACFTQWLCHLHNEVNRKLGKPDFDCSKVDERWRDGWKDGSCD
UCH37 DUB inh = inhibitors of human deubiquitinating enzyme UCH37; Q9Y5K5; purified proteasome/UCH37, Ub-AMC cleavage fluorescence; inhibition, % (no concentration beside the values); 0.33% of 330,000 active; AID 588478;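 active means mean of two replicates above 20%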;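 further: 0% = compound-free wells with enzyme and 100% = wells lacking proteasome; stock transfer was 100 nL into about 20 µL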
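Schedule: 30 min plus 25 min, room temperature / Material: human UCH37 within purified proteasomes / Technique: AMC fluorescence intensity at 355/460 nm / Buffer or medium: pH 7.4 Tris-HCl (50 mM) with ovalbumin, ATP-MgCl2, DTT / Controls: wells without proteasome as full block, compound-free enzyme plus substrate as uninhibited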
FGF22 binding = FGF22 (human) thermal shift binding; recombinant FGF22 thermal shift, SYPRO orange fluorescence; percent of sucrose octasulfate shift, DMSO zero; AID 651658; calls only at 9.99 µM; Q9HCT0; 1.5% of 340,000 active;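 active means melting point raised past a set limit in the mean and every replicate; three in four hits are not shown here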
Ecoli growth = E. coli growth inhibition | Escherichia coli growth, OD600, 23 h; hits give low values | OD600 absorbance (test concentration not listed) | 0.21% of 330,000 active;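 active means OD600 absorbance below the run mean of sample wells minus 3.6 SD, in any replicate, cut at about 0.56 in these data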;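 further: stock transfer was 300 nL into about 60 µL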
B2AR ag = activates human beta-2 adrenergic receptor causing internalization. P07550. Am2.2-beta2AR cells, FAP receptor internalization, flow cytometry; reference of the scale not given here. response, % (no concentration beside the values). 0.43% of 340,000 active. AID 504454;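 active means response above a set limit, near 3 SD of response in nonfluorescent compounds, cut at about 42% in these data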;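 further: stock transfer was 100 nL into about 11 µL; a reference agonist was the positive control; negative values mostly stem from fluorescent compounds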
Target sequence (P07550 whole entry, looked up): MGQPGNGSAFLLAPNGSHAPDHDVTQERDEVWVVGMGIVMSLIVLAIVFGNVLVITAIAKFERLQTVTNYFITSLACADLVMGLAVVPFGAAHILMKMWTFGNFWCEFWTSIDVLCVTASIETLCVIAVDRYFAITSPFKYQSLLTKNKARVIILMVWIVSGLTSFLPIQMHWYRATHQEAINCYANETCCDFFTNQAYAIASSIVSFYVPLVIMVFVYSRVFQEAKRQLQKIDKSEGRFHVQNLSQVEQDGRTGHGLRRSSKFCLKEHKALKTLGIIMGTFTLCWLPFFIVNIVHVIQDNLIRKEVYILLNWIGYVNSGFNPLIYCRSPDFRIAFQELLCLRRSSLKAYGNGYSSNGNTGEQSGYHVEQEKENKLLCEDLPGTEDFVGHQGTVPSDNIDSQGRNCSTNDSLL
HNF4A DNA FP = change in binding of human HNF4 alpha to DNA; P41235; HNF4a-FITC DNA binding, fluorescence polarization, 1 h; activity change, % at 10 µM; 0.3% of 360,000 active; in the data active means activity change above about 30%, passing the limit was not always enough;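 further: controls were the assay level and a saturating level of protein; the project sought stronger binding though the title names inhibitors; some compounds called inactive have numbers as strong as hits; positive values seem to mean higher polarization but the record does not say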
Target sequence (P41235 whole entry, looked up): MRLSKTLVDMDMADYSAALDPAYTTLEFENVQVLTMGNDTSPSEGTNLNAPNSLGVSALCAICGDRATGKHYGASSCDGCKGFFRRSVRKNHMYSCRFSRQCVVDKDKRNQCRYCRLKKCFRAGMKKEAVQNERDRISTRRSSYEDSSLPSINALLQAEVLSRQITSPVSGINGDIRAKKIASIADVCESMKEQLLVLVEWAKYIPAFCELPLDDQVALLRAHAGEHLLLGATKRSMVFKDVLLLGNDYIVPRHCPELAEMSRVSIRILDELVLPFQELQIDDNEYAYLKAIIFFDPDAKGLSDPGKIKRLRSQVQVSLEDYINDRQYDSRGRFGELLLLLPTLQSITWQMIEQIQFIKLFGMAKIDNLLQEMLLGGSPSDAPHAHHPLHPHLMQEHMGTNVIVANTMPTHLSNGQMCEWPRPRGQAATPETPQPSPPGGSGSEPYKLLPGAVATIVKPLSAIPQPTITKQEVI
Numbers without * were called inactive; i = inactive; . = not tested or not shown.

SMILES	LANA-H2B inh	ALR H2O2 inh	UCH37 DUB inh	FGF22 binding	Ecoli growth	B2AR ag	HNF4A DNA FP
CCOC(=O)C1=C(C)NC(=O)NC1/C=C/c1ccccc1 (stereo unspecified)	3.5	-4	0.3	.	0.68	-3	2.4
Cc1cc(N2C(=O)C(O)=C(C(=O)c3ccco3)C2c2ccccc2F)no1 (stereo unspecified)	0.9	17	9.7	i	0.67	6	5.4
CC1CCCN(S(=O)(=O)c2ccc3c(c2)c(=O)nc2ccc(Cl)cn23)C1 (stereo unspecified)	0.8	3	-264	i	0.7	-3	5.9
COc1ccc(CN(C(=O)CN2C(=O)NC3(CCC(C)CC3)C2=O)C(C)Cc2cccs2)cc1 (stereo unspecified)	6.1	-4	3.2	i	0.67	-6	1.2
CN1C(=O)C2(Oc3ccccc3C3CC(c4ccccc4)=NN32)c2ccccc21 (stereo unspecified)	-2.4	-6	7.9	.	0.76	17	4.0
COc1ccc(CCNC(=O)COC(=O)c2cc(=O)c3ccccc3o2)cc1	-3.4	.	0.8	i	0.67	1	-1.7
Cc1c(C(=O)NCCSCc2c(F)cccc2Cl)cnn1-c1ccc(F)cc1	2.8	-8	7.3	i	0.64	4	1.6
N#Cc1ccsc1NC(=O)C1CCN(C(=O)c2ccc(F)cc2)CC1	4.8	-8	-1.8	i	0.67	10	11
Cc1nnc(NC(=O)c2ccc3nccnc3c2)s1	.	.	9.8	i	0.69	-2	-1.5
COc1ccc(N2CCN(C(CNS(=O)(=O)c3cccs3)c3cccnc3)CC2)cc1 (stereo unspecified)	-3.0	55	0.1	.	0.72	-1	2.3
CCOC(=O)[C@@H]1[C@H]2COc3cc(OC)ccc3[C@@H]2N2C(=O)N(c3cccc(F)c3)C(=O)[C@]12C	2.3	1	2.9	i	.	-10	-6.2
O=C(CC(c1ccccc1)c1ccccc1)NCCO	-3.6	-26	-1.8	.	0.74	3	2.1
CN(Cc1ccccc1)C(=O)C1CCN(S(=O)(=O)c2cc([N+](=O)[O-])ccc2Cl)CC1	-7.1	-20	3.7	i	0.63	-1	1.2
CN(C(=O)CC(NC(=O)c1ccccc1Cl)c1ccccc1)c1ccccc1 (stereo unspecified)	-1.7	-6	-0.6	i	0.68	-2	1.1
CCc1ccc(NC(=O)C2CCCN2S(=O)(=O)c2ccc3c(c2)C(C)(C)C(=O)N3C)cc1 (stereo unspecified)	-0.1	-5	2.7	i	0.76	-1	3.3
N#CCc1c(C#N)c(N)nc(N2CCN(c3ccc(F)cc3)CC2)c1C#N	5.8	40	1.9	.	0.7	-7	4.9
O=C(c1cc(-c2cccs2)on1)N1CCCc2ccccc21	.	.	1.7	i	0.71	4	2.3
O=C(CCC(=O)c1cccs1)NCc1ccncc1	-0.3	-5	2.8	i	0.71	1	1.7
CC(=O)c1cccc(NC(=O)CSc2nnc(-c3cccnc3)o2)c1	2.4	-10	5.2	.	0.67	-3	1.4
Cc1ccc(-c2nnc(SCc3ccc(C#N)cc3)n2Cc2ccco2)cc1	1.0	0	3.9	.	0.75	-3	1.2
CN(c1ccc(OCC(=O)N2CCOCC2)cc1)S(=O)(=O)c1ccc(Cl)cc1	-1.0	1	1.7	i	0.71	-9	-1.1
CCOC(=O)c1cc(CC)sc1NC(=O)Cc1ccccc1	-4.1	-16	0.5	.	0.66	1	1.3
CS(=O)(=O)N1CCN(C(=O)c2cc(-c3cccnc3)nc3ccc(Br)cc23)CC1	0.7	-9	4.1	i	0.67	-1	-6.5
COc1ccc(/C=N/NC(=O)c2cccnc2)cc1CN1CCc2ccccc2C1	-2.0	.	.	i	.	-2	-3.5
Cc1cc2c(cc1S(=O)(=O)Nc1cccc(C)c1C)OCC(=O)N2	-1.6	2	0.5	i	0.74	-3	-1.4
Cc1cc(C)c(S(=O)(=O)N2CCN(S(=O)(=O)N3CCC(C)CC3)CC2)c(C)c1	1.7	-5	1.6	i	0.68	-9	-1.5
O=C(NC1CCCC1)C(c1cccnc1)N(C(=O)c1csnn1)C1CC1 (stereo unspecified)	0.1	3	4.0	.	0.7	-10	-5.8
CC(=O)N(/N=C/c1cccc(C)c1)c1nc(-c2ccc(Br)cc2)cs1	-7.9	-1	.	.	.	0	-0.7
CCN(CC(=O)Nc1ccccc1OC)C(=O)CSCC(=O)Nc1cccc(C)c1	.	.	1.5	i	0.69	-2	-1.6
Cc1ccc(-n2nc(C)c(=O)c(-c3ccccc3)c2NC(=O)c2cccs2)cc1	2.2	-1	2.6	i	0.63	5	-1.6

3 entries already listed, ordered by the number in B2AR ag, rising.
| structure | LANA-H2B inh | ALR H2O2 inh | UCH37 DUB inh | FGF22 binding | B2AR ag | HNF4A DNA FP |
| --- | --- | --- | --- | --- | --- | --- |
| Cc1cc(C)c(S(=O)(=O)N2CCN(S(=O)(=O)N3CCC(C)CC3)CC2)c(C)c1 | 1.7 | -5 | 1.6 | i | -9 | -1.5 |
| Cc1cc2c(cc1S(=O)(=O)Nc1cccc(C)c1C)OCC(=O)N2 | -1.6 | 2 | 0.5 | i | -3 | -1.4 |
| CS(=O)(=O)N1CCN(C(=O)c2cc(-c3cccnc3)nc3ccc(Br)cc23)CC1 | 0.7 | -9 | 4.1 | i | -1 | -6.5 |

Additional results.
SMILES	LANA-H2B inh	ALR H2O2 inh	UCH37 DUB inh	FGF22 binding	Ecoli growth	B2AR ag	HNF4A DNA FP
COC(=O)Cc1ccc(OC(=O)CCS(=O)(=O)c2ccc(Cl)cc2)cc1	-6.2	8	1.7	.	0.68	5	-0.9
O=C(COC(=O)c1ccccc1NCCO)NCCC1=CCCCC1	-3.4	-11	i	i	0.68	6	-0.5
COc1cc2c(cc1OC)C(C)N(C(=O)Cn1ncc3c1-c1cc(C)ccc1OC3)CC2 (stereo unspecified)	0.3	-11	0.6	i	0.74	1	3.6
COc1ccc(CCNC(=O)COc2ccc(-c3ccc(C#N)cc3)cc2)cc1	3.0	11	-1.9	i	0.72	4	-2.6
COc1cccc(C(=O)NCCS(=O)(=O)NCc2ccccn2)c1	1.7	-9	2.8	i	0.63	1	-1.8
O=C(CCNC(=O)c1ccccc1Cl)Nc1ccccc1N1CCCC1	3.8	32	3.5	i	0.77	4	6.6
CC(C)OC(=O)c1nnn(-c2nonc2N)c1CN1CCCCCC1	0.0	-2	-0.9	.	0.67	6	-1.3
CCCSc1nc(=O)n2cc(C)ccc2n1	-2.7	-7	5.5	i	0.66	3	-0.2
O=C(O)c1ccc(Oc2cc(Oc3ccc(C(=O)O)cc3)cc([N+](=O)[O-])c2)cc1	7.0	34	6.1	i	0.69	4	-7.7
CCCCN(CCCC)Cc1ccc(N)cc1	0.2	-28	3.2	.	0.72	0	2.6
O=C(COc1ccc2c(c1)C(=O)CC1(CCCCC1)O2)NCc1ccccc1	-3.3	-19	-163	.	0.72	-16	3.9
CCSc1nnc2n(-c3ccc(OC)cc3)c(=O)c3c4c(sc3n12)CCCC4	-3.1	-3	-0.7	.	0.7	6	0.0
COc1ccc(-c2cccc3c2C2CC3CCN2C(=O)OCc2ccccc2)cc1 (stereo unspecified)	.	.	.	i	.	15	-2.6
O=C(CCNC(=O)C1CCN(S(=O)(=O)c2ccccc2)CC1)NCc1ccccc1Cl	4.0	-3	2.4	i	0.7	8	1.1
O=C(O)CC/C(=N\Nc1ccc(S(=O)(=O)N2CCOCC2)cc1[N+](=O)[O-])c1cccs1	-5.6	17	.	i	.	3	2.1
CCN(CC)S(=O)(=O)c1ccc(Cl)c(NC(=S)NC(=O)C2CCCC2)c1	1.5	2	-1.9	i	0.72	16	-4.7
CCCCc1cc(=O)oc2cc(OCC(=O)N3C[C@H]4C[C@@H](C3)c3cccc(=O)n3C4)ccc12	-1.8	.	-2.9	i	0.73	-10	1.2
Cc1ccn2c(NC3CCCCC3)c(C)nc2c1	0.6	95*	-6.1	.	0.71	-2	-2.4
CCCC(C)NC(=S)Nc1cc(C)cc(C)c1 (stereo unspecified)	-0.9	-8	1.6	i	0.69	4	-4.4
COC(=O)c1ccccc1NC(=O)N1c2ccccc2Sc2ccccc21	-1.0	-2	4.3	.	0.7	4	-3.5
CCCCC(=O)Nc1nnc(/C=C/c2ccc(OC)cc2)s1	-2.5	-2	-146	.	0.67	3	-1.1
Cc1cc(S(=O)(=O)n2ccnc2)c(Cl)cc1Cl	5.5	.	1.0	i	0.7	2	3.4
COc1cc(OC)cc(-c2c(C#Cc3ccsc3)c3cc(-c4ccc(CN5CCOCC5)cc4)ccc3n2C)c1	-3.7	0	-54	i	0.74	0	1.1
CC1CCc2c(sc3nc(SCC(=O)NCc4ccco4)nc(N)c23)C1 (stereo unspecified)	3.5	14	-15	.	0.76	-6	0.5
CN(C)CCCNc1oc(/C=C/c2ccccc2)nc1C#N	-4.7	20	-29	i	0.71	7	1.2
O=c1cc(Nc2ccc3c(c2)OCCO3)[nH]c(=O)n1C1CCCCC1	-5.0	57	0.6	.	0.7	-4	-0.6
CC(=O)c1c(C)[nH]c(C(=O)Nc2nccs2)c1C	2.6	3	2.8	i	0.72	-1	5.0
COC(=O)c1cnc(Oc2c(Cl)cc(N)cc2Cl)cc1C(F)(F)F	-1.4	-43	-0.8	i	0.67	12	5.4
Cc1ccc(N2C(=O)C(CN(C)C)C2c2ccccc2)cc1 (stereo unspecified)	5.1	-6	-4.0	.	0.6	-7	-3.1
CCCCNc1nc2cccnc2s1	-4.6	-3	4.1	i	0.61	-2	-1.1
CSc1ncc(C(=O)Nc2ccc(Cl)cc2)c(C)n1	8.7	-5	-0.8	i	0.67	0	2.2
COc1ccc(C(=O)CSc2n[nH]c(N)n2)cc1	5.0	-11	-0.3	.	0.72	-5	-7.1
Oc1c(Br)cc(Br)cc1/C=N/c1nc2c(s1)CCCC2	-1.7	-7	.	.	.	32	0.9
CC1CC(C)CN(S(=O)(=O)c2ccc3c(c2)CCN3C(=O)CCC(=O)O)C1 (stereo unspecified)	1.0	-2	1.9	.	0.6	3	1.0
CCOC(=O)C(Cc1ccccc1)NC(=O)CCc1nnc2ccc(N3CCOCC3)nn12 (stereo unspecified)	1.8	-2	0.5	i	0.66	4	3.4
Cc1ccc(S(=O)(=O)NCc2ccccc2)cc1C(=O)NCCc1ccc(S(N)(=O)=O)cc1	-2.6	1	5.0	i	0.66	1	-1.4
O=c1cc(CN2CCN(S(=O)(=O)c3ccccc3[N+](=O)[O-])CC2)nc2sccn12	0.9	-8	4.3	i	0.65	-3	-1.4
Cc1nc(Cl)sc1C(=O)Nc1cccc(C(F)(F)F)c1	.	.	.	i	.	-6	2.2
Cc1ccc(C2=NCCn3nc4cc(C(F)(F)F)ccc4c32)cc1	1.8	.	4.9	i	0.7	-5	4.1
CCOC(=O)c1c(C)[nH]c(C(=O)NNC(=O)c2ccc(Br)cc2)c1C	-1.1	11	0.5	i	0.64	-6	4.1
COCCCn1nnnc1SCC(=O)Nc1nc2ccccc2s1	-2.1	-16	0.1	i	0.63	1	-3.5
O=C(CSc1nnc(SCc2ccccc2)s1)NNC(=S)Nc1ccccc1	10	24	2.7	i	0.74	6	5.7
O=C(CN(Cc1ccccc1)C(=O)c1csnn1)NCc1ccccc1	-3.4	0	2.9	i	0.67	6	2.1
O=C1Nc2ccccc2C12OCCCO2	-0.5	5	-1.3	.	0.78	4	-0.3
Cc1cccc(/C(N)=N/OC(=O)c2ccc3c(c2)OCO3)c1	-2.4	97*	6.6	.	0.72	2	0.4
O=[N+]([O-])c1cc(C(F)(F)F)ccc1Sc1ccccn1	-1.2	2	-0.2	.	0.67	-20	2.8
CCOC(=O)c1ccc(NC(C)=O)c([N+](=O)[O-])c1	-0.5	-7	6.1	i	0.7	-12	-3.2
O=C1CC(c2ccccc2)NC(=O)N1 (stereo unspecified)	-8.7	-5	7.8	.	0.72	-4	-0.9
COc1ccc(OC)c(-n2nnnc2SCC(=O)Nc2nc(C)c(C)s2)c1	3.1	-1	2.9	.	0.7	9	0.1
CCN(CC)c1ccc(/C=N/N=C(N)N)c(O)c1	-2.7	76*	.	.	.	28	22

Some of the compounds tested; the hit share may differ from the screen's.
